Beta cell apopt = inhibitors of cytokine-induced beta cell apoptosis, primary screen, luminescence; actives 0.8% (n = 300,000); INS-1E cytokine-induced death, ATP luminescence, 48 h; percent of positive-control rescue, neutral wells zero; protection from apoptosis, % (concentration not given with the values);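 active means all replicates at 75% or more, or half of them and the mean; inconclusive means half reach 75% but not the mean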;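 further: 0% = cytokine-treated negative control wells and 100% = positive control rescue; higher means more ATP so stronger rescue from cytokine killing; wells of about 40 µL received 100 nL stock; the first replicate is given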
AF4-AF9 inh = inhibitors of AF4 peptide binding to AF9, primary screen, biochemical, AlphaScreen, biotin-AF4 peptide, FLAG-AF9, single point. Protein AF-9 (Homo sapiens), P42568. inhibition, % at 10 µM. actives 0.47% (n = 350,000);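 active means every replicate reaching a set inhibition limit, whatever the replicate mean, cut at about 25% in these data; inconclusive means mean inhibition reaches that limit but some replicates miss it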;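 further: 0% = plate neutral control median and 100% = total signal loss; the record names both 10 and 1 µM as test concentration; the first replicate is given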
Target sequence (P42568 whole entry, looked up): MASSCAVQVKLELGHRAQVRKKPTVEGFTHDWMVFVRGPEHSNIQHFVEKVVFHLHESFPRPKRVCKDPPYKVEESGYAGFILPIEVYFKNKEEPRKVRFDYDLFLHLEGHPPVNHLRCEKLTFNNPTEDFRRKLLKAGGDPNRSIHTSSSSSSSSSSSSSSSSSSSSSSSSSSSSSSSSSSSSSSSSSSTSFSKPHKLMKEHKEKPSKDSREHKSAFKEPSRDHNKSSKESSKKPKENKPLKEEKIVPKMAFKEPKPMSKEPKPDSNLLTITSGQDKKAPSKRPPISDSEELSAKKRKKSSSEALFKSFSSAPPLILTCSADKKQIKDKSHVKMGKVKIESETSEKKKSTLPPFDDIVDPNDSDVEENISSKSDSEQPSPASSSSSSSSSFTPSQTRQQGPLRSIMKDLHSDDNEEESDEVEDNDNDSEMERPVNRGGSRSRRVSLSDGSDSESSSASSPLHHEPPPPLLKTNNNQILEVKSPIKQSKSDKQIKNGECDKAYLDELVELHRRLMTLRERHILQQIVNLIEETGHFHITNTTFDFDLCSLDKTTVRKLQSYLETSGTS
T cruzi repl = inhibitors of intracellular T. cruzi growth, primary screen, luminescence, NIH3T3 host cells. T. cruzi beta-gal in NIH3T3, 90 h. inhibition, % (test concentration not listed). actives 1.4% (n = 300,000);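 active means mean inhibition across valid replicates above about 55%, limit read from the data; inconclusive means mean below that limit but half or more replicates reach it; inactive means mean below it, under half of replicates reach it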;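 further: signal also drops with host cell toxicity which is not excluded here; 0% = plate median of DMSO wells and 100% = zero luminescence signal; higher percent means less beta-gal luminescence so fewer parasites; stock transfer was 50 nL into about 50 µL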
UCH37 inh = inhibitors of human UCH37 deubiquitinase, primary screen, biochemical, Ub-AMC cleavage, fluorescence; Ubiquitin carboxyl-terminal hydrolase isozyme L5 (Homo sapiens), Q9Y5K5; purified proteasome/UCH37; inhibition, % (no concentration beside the values); actives 0.33% (n = 330,000); AID 588478, 2011;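 active means mean of two replicates above 20%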;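 further: 0% = compound-free wells with enzyme and 100% = wells lacking proteasome; stock transfer was 100 nL into about 20 µL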
Target sequence (Q9Y5K5 whole entry, looked up): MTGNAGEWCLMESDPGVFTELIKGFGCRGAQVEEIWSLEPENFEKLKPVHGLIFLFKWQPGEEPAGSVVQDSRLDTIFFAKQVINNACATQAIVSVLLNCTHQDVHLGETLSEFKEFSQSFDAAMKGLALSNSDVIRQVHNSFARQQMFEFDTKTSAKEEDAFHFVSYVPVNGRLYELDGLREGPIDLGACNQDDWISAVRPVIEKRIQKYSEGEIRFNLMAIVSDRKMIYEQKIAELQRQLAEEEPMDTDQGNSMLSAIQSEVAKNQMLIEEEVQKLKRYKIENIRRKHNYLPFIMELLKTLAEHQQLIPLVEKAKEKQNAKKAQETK
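Test system – human UCH37 enzyme supplied as purified proteasome complex · Incubation – 30 min preincubation with enzyme, 25 min cleavage at room temperature · Detection – AMC fluorescence from Ub-AMC cleavage, excitation 355 nm, emission 460 nm · Benchmarks – no-proteasome wells (full inhibition) and compound-free wells (no inhibition)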
Ecoli rRNA inh = reduced GFP signal of wild-type E. coli, primary screen, bacterial rRNA inhibitor project, GFP/RFP fluorescence, OD600, single point; GFP signal change (wild-type ribosome), % (concentration not given with the values); AID 720706, 2013; actives 1.6% (n = 350,000); E. coli WT GFP vs humanized-ribosome RFP mutants, 24 h; hits give low values; DMSO median 0, no signal -100;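 active means significant combined selectivity score with lowered wild-type GFP, culture density cut under 30%, mutant RFP and density less affected; inactive means any of these conditions unmet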; further: one replicate is shown; some compounds called inactive have numbers as strong as hits
A1 inh = caspase 3/7 activation in MEF A1-2A-BIM cells, primary screen, A1 inhibitor project, cell-based, luminescence, HTS; Caspase-Glo 3/7 luminescence, 3 h; percent of clofoctol response, vehicle zero; caspase activation, % (no concentration beside the values); actives 0.066% (n = 330,000);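 active means over half of replicate activation scores above 10%, or exactly half above 10 with the replicate mean above 10; inconclusive means replicate mean below 10 yet half the replicates above 10; inactive means over half of replicates below 10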;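 further: wells of about 30 µL received 50 nL stock; many hits fall short of the cut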
Ecoli growth = E. coli growth inhibition, primary screen, OD600; Escherichia coli growth, 23 h; hits give low values; OD600 absorbance (no concentration beside the values); actives 0.21% (n = 330,000); AID 1053175, 2014;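 active means OD600 absorbance below the run mean of sample wells minus 3.6 SD, in any replicate, cut at about 0.56 in these data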;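 further: stock transfer was 300 nL into about 60 µL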
FGF22 binding = binders of human FGF22 protein, primary screen, FGF22 synaptogenesis inhibitor project, biophysical, thermal shift, single point; Fibroblast growth factor 22 (Homo sapiens), Q9HCT0; recombinant FGF22 thermal shift, SYPRO orange fluorescence; percent of sucrose octasulfate shift, DMSO zero; calls only at 9.99 µM; actives 1.5% (n = 340,000);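 active means melting point raised past a set limit in the mean and every replicate; inconclusive means no clear call; three in four hits are not shown here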
Target sequence (Q9HCT0 whole entry, looked up): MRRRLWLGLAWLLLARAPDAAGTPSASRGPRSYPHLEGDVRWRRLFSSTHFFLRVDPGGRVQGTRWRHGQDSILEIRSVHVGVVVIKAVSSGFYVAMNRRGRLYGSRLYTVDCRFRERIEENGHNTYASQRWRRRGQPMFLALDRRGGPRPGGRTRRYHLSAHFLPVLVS
Ecoli rRNA inh OD600 = also measured in Ecoli rRNA inh; calls as there; OD600 change, %; measured here: OD600 growth;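 optical density of the mix in the first replicate; 0 = DMSO median and -100 = no signal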
Ecoli rRNA inh RFP = further read-out of Ecoli rRNA inh, marked with its call; RFP signal change, %; measured here: RFP humanized mutant strains;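 first replicate; 0 = DMSO median and -100 = no signal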
* = called active by the depositor; i = inactive; ? = inconclusive; nt = no result given. A portion of the library; count on the stated rates, not on these rows.

SMILES	Beta cell apopt	AF4-AF9 inh	T cruzi repl	UCH37 inh	Ecoli rRNA inh	Ecoli rRNA inh OD600	Ecoli rRNA inh RFP	A1 inh	Ecoli growth	FGF22 binding
CN(Cc1ccccc1)S(=O)(=O)c1nnc(NC(=O)c2ccccc2F)s1	3.8	-8.3	5.8	-0.4	8.7	15.5	2.9	1.0	0.705	i
CSC1=NCCN1C(=O)c1cccc(C(F)(F)F)c1	2.3	nt	1.7	2.1	nt	nt	nt	0.1	0.705	nt
COc1cccc(CNC(=O)CCCn2nc(C)n3c(cc4sccc43)c2=O)c1	1.8	0.6	-7.7	2.5	6.5	12.3	-1.0	-0.3	0.668	i
O=C(CN1C(=O)NC2(CCc3ccccc32)C1=O)Nc1cc(C(F)(F)F)ccc1N1CCOCC1 (centres undefined)	-0.5	nt	-3.3	1.7	nt	nt	nt	0.2	0.757	nt
COc1ccc(NC(=O)c2scc(S(=O)(=O)C(C)C)c2N)cc1	11.2	-11.8	-6.6	3.8	-10.4	-4.0	0.3	-7.9	0.61	i
O=C(Nc1cnccn1)c1cccnc1	-1.0	-1.3	-18.2	-0.3	14.2	13.1	-12.0	0.9	0.707	i
CC(C)(C)OC(=O)N1CCC2(CC1)C(C#N)=C(N)OC1=C2C(=O)CCC1	0.1	-0.1	-7.3	0.9	11.0	6.5	0.4	0.8	0.678	i
CCOC(=O)C=C(OC(=O)c1ccc(OC)cc1)c1ccccc1	nt	0.5	nt	4.3	nt	nt	nt	nt	0.689	i
CN(CCCNC(=O)CCc1cn(C)c2ccccc12)C1CCCCC1	-3.8	13.7	15.2	0.9	7.2	14.5	3.3	0.5	0.688	i
CCOC(=O)COc1ccc2c(c1)c(C(=O)OCC)c(C)n2CC	0.9	nt	-18.1	-1.1	nt	nt	nt	0.6	0.787	nt
CN(C)C(=O)CCCCCCCCC(=O)N(C)C	-3.5	1.7	-12.8	7.1	4.8	4.5	-0.8	0.0	0.668	i
Cc1ccc(C2C3=C(CCCC3=O)Nc3[nH]c(=S)[nH]c(=O)c32)cc1 (centres undefined)	-3.4	nt	-3.3	4.3	nt	nt	nt	1.3	0.671	nt
O=C(c1ccccc1NS(=O)(=O)c1cccc(C(F)(F)F)c1)N1CCc2ccccc21	0.0	-5.2	6.7	-1.2	nt	nt	nt	2.7	0.711	i
COc1ccc(C(=O)CSc2nncn2C)cc1	4.5	nt	-17.0	3.3	nt	nt	nt	-0.6	0.767	nt
COc1ccccc1C(=O)COC(=O)c1nc(Cl)ccc1Cl	-1.4	1.3	2.8	-1.3	8.2	4.4	-1.0	-0.9	0.642	i
CCOC(=O)C1CCN(CCCSc2ccc(C)cc2)CC1	-4.5	0.1	-7.3	nt	-0.9	3.9	-1.2	-0.2	nt	i
COc1cc(CC2COC(=O)C2(O)Cc2ccc(O)c(OC)c2)ccc1O (centres undefined)	nt	-2.5	-21.0	0.1	4.3	6.9	-6.0	-0.4	0.719	i
O=C(O)c1cc2ccccc2cc1Nc1ccccc1	-2.5	?	-12.8	2.8	-8.5	-18.7	21.9	0.3	0.645	i
COc1ccccc1OCC(=O)Nc1ccccc1C(=O)NCc1ccco1	-2.0	nt	-5.0	1.5	nt	nt	nt	0.6	0.705	nt
CC(=C/c1ccccc1)/C=C1/SC(N2CCOCC2)=NC1=O	-5.1	nt	-1.8	13.8	nt	nt	nt	-0.2	0.649	nt
O=C(NCc1ccccc1)c1ccc(F)c(F)c1	1.3	-4.5	2.2	3.6	16.6	9.9	0.2	1.0	0.674	i
O=C(CN1C(=O)c2ccccc2C1=O)OCC(=O)c1ccccc1	-1.1	2.4	4.1	5.0	9.5	11.2	-0.4	0.7	0.676	i
O=C1Nc2ccccc2C12OCCO2	1.0	1.5	-2.6	2.2	-2.1	6.6	-3.7	-0.1	0.665	i
Nc1ncccc1C(=O)OCC(=O)NC1CCCCCC1	0.3	-0.6	nt	-89.7	6.6	4.6	1.7	-0.5	0.708	i
CCc1cc(C(=O)OC)c(NC(=O)CCCC(=O)O)s1	-4.3	nt	-19.4	1.3	nt	nt	nt	0.5	0.669	nt

5 entries from above, with values under each structure:
Values run as follows: Beta cell apopt	AF4-AF9 inh	T cruzi repl	UCH37 inh	Ecoli rRNA inh	Ecoli rRNA inh OD600	Ecoli rRNA inh RFP	A1 inh	Ecoli growth	FGF22 binding
O=C(c1ccccc1NS(=O)(=O)c1cccc(C(F)(F)F)c1)N1CCc2ccccc21
→ 0.0	-5.2	6.7	-1.2	nt	nt	nt	2.7	0.711	i
COc1ccc(C(=O)CSc2nncn2C)cc1
→ 4.5	nt	-17.0	3.3	nt	nt	nt	-0.6	0.767	nt
COc1ccccc1C(=O)COC(=O)c1nc(Cl)ccc1Cl
→ -1.4	1.3	2.8	-1.3	8.2	4.4	-1.0	-0.9	0.642	i
CCOC(=O)C1CCN(CCCSc2ccc(C)cc2)CC1
→ -4.5	0.1	-7.3	nt	-0.9	3.9	-1.2	-0.2	nt	i
COc1cc(CC2COC(=O)C2(O)Cc2ccc(O)c(OC)c2)ccc1O (centres undefined)
→ nt	-2.5	-21.0	0.1	4.3	6.9	-6.0	-0.4	0.719	i

Going on with the list.
SMILES	Beta cell apopt	AF4-AF9 inh	T cruzi repl	UCH37 inh	Ecoli rRNA inh	Ecoli rRNA inh OD600	Ecoli rRNA inh RFP	A1 inh	Ecoli growth	FGF22 binding
O=C(CNCc1ccco1)Nc1ccc(N2CCCCCC2)cc1	-0.3	28.7*	5.1	3.2	-26.3	-37.0	-4.9	2.0	0.66	i
CC1(C)CC(=O)C(C(C2=C(O)CC(C)(C)CC2=O)c2cccs2)C(=O)C1 (centres undefined)	-8.3	nt	-0.6	-1.4	nt	nt	nt	0.0	0.693	nt
Cc1cnc(C(=O)OCC(=O)Nc2sc3c(c2C(N)=O)CCCC3)cn1	-0.7	-1.0	nt	0.1	4.6	15.9	-2.5	1.1	0.633	i
CC(=O)N(C(C)=O)c1nc(-c2ccccc2)cn1/N=C/c1cccc([N+](=O)[O-])c1	0.9	1.8	0.4	nt	20.1	7.7	-0.2	0.2	nt	i
CC(C)c1ccc(/C=C/c2ccc(=O)n(C)n2)cc1	0.8	12.2	12.5	-75.4	-32.0	-57.0	6.1	0.0	0.658	nt
Cc1ccccc1C(=O)OC1OC(=O)C(Cl)=C1N1CCOCC1 (centres undefined)	1.2	nt	-5.5	-15.0	nt	nt	nt	0.3	0.685	nt
COc1ccc(S(=O)(=O)N2CCC(O)(c3ccc(Cl)cc3)CC2)cc1	2.6	nt	8.4	5.2	nt	nt	nt	-0.1	0.697	nt
CNC(=O)c1cnn(-c2nc(-c3ccc(OC)cc3)cs2)c1C(F)(F)F	-1.1	-1.9	-1.8	-7.4	3.5	-3.0	-2.2	-0.1	0.683	i
CCCCOc1ccc(NC(=O)Nc2nnc(C)s2)cc1	nt	-0.5	1.2	nt	7.3	19.4	1.7	1.2	nt	i
O=C(Cn1nc(-c2cccc([N+](=O)[O-])c2)c2ccccc2c1=O)Nc1cccnc1	-3.4	nt	-4.7	6.1	nt	nt	nt	0.5	0.712	nt
COc1ccc(CCNC(=O)/C=C/c2ccc3ccccc3n2)cc1OC	nt	-1.1	24.5	4.6	-4.3	-13.4	0.2	-5.9	0.683	i
O=C(CCCOc1ccccc1)N1CCN(C(=O)c2ccco2)CC1	-0.1	nt	1.3	0.7	nt	nt	nt	0.4	0.722	nt
O=C1Nc2ccccc2C(O)(C(=O)NCc2ccc3c(c2)OCO3)N1c1ccc(Cl)c(Cl)c1 (centres undefined)	-10.3	nt	-2.4	2.7	nt	nt	nt	1.2	0.708	nt
C/C(N)=C(/C#N)C(=O)CN1CCCCC1	-0.3	nt	-13.5	0.6	nt	nt	nt	-0.9	nt	nt
COc1ccc(CNC(=O)C2CCCN(Cc3nc(-c4cccc(C)c4)oc3C)C2)cc1 (centres undefined)	2.7	1.7	56.1*	2.2	nt	nt	nt	-0.3	0.672	i
Cc1ccc(CS(=O)(=O)CCC(=O)NC2CC2)cc1	0.8	nt	-7.9	3.8	nt	nt	nt	-0.3	0.7	nt
CCc1ccc(-c2nc(CS(=O)CC(=O)NCc3ccccc3)c(C)o2)cc1 (centres undefined)	-4.4	1.4	-19.8	-0.4	-3.9	-18.1	4.0	0.8	0.695	i
CSc1nc2nc3c(cc2c(=O)n1-c1ccc(C)cc1)COC(C)(C)C3	-9.7	6.2	16.8	-1.6	4.9	-2.5	3.1	-0.3	0.742	i
Cc1cccc(NC(=O)C2CC(O)CN2C(=O)OCc2ccccc2)c1 (centres undefined)	-5.3	nt	-0.9	-2.5	nt	nt	nt	-0.5	0.755	nt
COc1ccc(C2=NS(=O)(=O)N(C)C(C(=O)N3CCCCC3)=C2)cc1OC	-8.6	0.8	8.9	14.7	2.2	-4.8	4.4	0.8	0.802	i
O=C(COC(=O)c1ccc(O)cc1O)c1ccc(Cl)cc1	-1.4	2.3	-13.6	3.5	-15.1	-18.9	-2.7	-1.8	0.621	i
C=CCN(CC=C)CCCOc1ccc(Br)cc1Cl	4.4	-2.2	25.4	1.9	2.5	8.0	0.3	0.9	0.584	i
CCCSc1nc2c(c(=O)n(C)c(=O)n2C)n1Cc1ccc(C)cc1	8.8	nt	25.8	2.8	nt	nt	nt	0.3	0.744	nt
O=C(NCC(c1cccs1)N1CCOCC1)c1cn(-c2ccccc2)nc1-c1ccc(Cl)cc1 (centres undefined)	10.7	1.6	22.2	1.6	0.4	-0.4	-1.7	0.6	0.709	i
CCOC(=O)CN1N=C(/C=C/c2ccc(OCC)cc2)CCC1=O	-5.4	-1.7	-15.3	5.8	-4.3	-4.1	-3.3	-0.3	0.667	i
CC(=O)C1=C(O)C(=O)N(c2cc(C(C)(C)C)on2)C1c1ccc(C(C)C)cc1 (centres undefined)	-6.7	nt	-10.3	-4.4	nt	nt	nt	0.9	0.674	nt
O=[N+]([O-])c1ccc(C[n+]2ccccc2)cc1	4.8	-7.1	-23.5	2.4	9.4	8.4	-0.6	0.0	0.623	i
COC(=O)C1=C(C)NC(C)=C(C(=O)OC)C1c1ccc(-c2cc(Cl)ccc2Cl)o1	-8.9	nt	27.5	-24.4	nt	nt	nt	1.1	0.718	nt
Cc1cc(C(=O)Nc2nnc(-c3ccccc3)s2)no1	-2.4	nt	-15.4	4.6	nt	nt	nt	0.0	0.735	nt
N#CC1=C(N)Oc2n[nH]c(-c3ccccn3)c2C1c1c(F)cccc1Cl (centres undefined)	-7.8	nt	-12.9	6.3	nt	nt	nt	0.0	0.726	nt
